# High-throughput results deposited in PubChem BioAssay by National Center for Advancing Translational Sciences (NCATS).
# ClpP mod: qHTS Assay for Activators of ClpP; Potency, µM (series often up to 57.5 µM), without a hit: at the top dose activity change, negative = active; purified B. subtilis ClpP, FRET peptide cleavage, 20 min; ATP-dependent Clp protease proteolytic subunit (Bacillus subtilis (strain 168)), P80244; 340,000 tested, 1.9% active; active = well fitted falling curve with a large enough effect; inconclusive = small, poorly fitted or top-dose-only effect; inactive = no such curve, though single readings can be large or run the other way; also: the source files actives as falling curves though it sought activators and does not explain the sign; nearly all actives have a fitted effect of over 65% in size; many hits overshoot -100%
# Target sequence (P80244 whole entry, looked up): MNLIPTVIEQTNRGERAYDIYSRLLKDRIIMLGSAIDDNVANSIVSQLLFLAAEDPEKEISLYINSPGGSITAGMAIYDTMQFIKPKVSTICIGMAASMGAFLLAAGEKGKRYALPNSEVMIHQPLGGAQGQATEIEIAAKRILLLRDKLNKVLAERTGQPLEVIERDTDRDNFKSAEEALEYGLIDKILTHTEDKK
#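 Buffer: 100 mM Tris/HCl pH8, 100 mM KCl, 0.05% low protease BSA, 2.5% glycerol, 0.01% Tween-20. ClpP 10 microg/mL final; 20 min RT; delta FRET normalized to ADEP and DMSO controls.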
# * hit, by the source's call; ? = inconclusive. Potency is read from the fitted curve at half-maximal effect. These rows are one share of the data; the hit share may differ from the screen's.
SMILES,ClpP mod
COCCCn1cc(CN2CC(N3CCN(C)CC3)CS2(=O)=O)nn1 (centres undefined),0.1%
COc1ccc2c(C)c(CCC(=O)NCCc3ccc(Cl)cc3)c(=O)oc2c1,4.4%
O=C(Nc1cc2ccc(O)cc2oc1=O)c1ccc(F)cc1,-6.8%
CCN1C(=O)c2ccccc2Sc2ccc(NC(=O)Cc3ccc(OC)c(OC)c3)cc21,-2.9%
Cc1ccc(C)c2sc(N3CCN(C(=O)c4ccco4)CC3)nc12,-2.4%
CCS(=O)(=O)N1CCc2cc(C(=O)Nc3cc(C)cc(C)c3)ccc21,1.8%
CCCCN(CC)C(=O)CSc1nc2n[nH]c(C)c2c(=N)n1-c1cccc(OC)c1,-6.5%
CCc1ccc(-c2cn3nc(CC)sc3n2)cc1,1.8%
CCOc1ccc(NC(=O)c2ccc3[nH]c(C)cc(=O)c3c2)cc1,-4.0%
Cc1ccc(-c2c(CN3CCN(c4cc(C)ccc4C)CC3)csc2C)cc1,0.4%
O=C(Cn1c(Cn2c(-c3cnccn3)nc3ccccc32)nc2ccccc21)c1ccc(OC(F)(F)F)cc1,4.8%
CCOCCCNC(=O)C1CCCN(c2ncnc3onc(C)c23)C1 (centres undefined),-1.9%
CCOc1cc(C2c3c(-c4cc(C)ccc4O)n[nH]c3C(=O)N2CCCOC(C)C)ccc1O (centres undefined),-3.6%
CCOc1ccc(-n2c(=O)c3c(C)c(C)sc3n(CC(=O)N(CC)Cc3ccccc3)c2=O)cc1,1.0%
Cn1c2ccccc2c2c(C(=O)N3CCN(c4cccc(C(F)(F)F)c4)CC3)cn(C3CCCCC3)c(=O)c21,?
COC(=O)c1c(NC(=O)CS(=O)(=O)c2ccc(C)cc2)sc2c1CCCC2,-11%
CCOc1ccccc1NC(=O)c1ccc2c(Cl)c3c(nc2c1)CCC3,6.1%
Cc1ccc(NC(=O)CSc2nc3ccc(NC(=O)CCc4ccccc4)cc3s2)cc1,-0.5%
COc1ccc(NC(=O)c2ccc3[nH]c(C)cc(=O)c3c2)cc1,-12%
O=C(Nc1cccc(Br)c1)N1CCC(CN2CCCCCC2)CC1,-6.0%

# Reprinted from the part before: five compounds; new compounds follow.
SMILES,ClpP mod
COC(=O)c1c(NC(=O)CS(=O)(=O)c2ccc(C)cc2)sc2c1CCCC2,-11%
CCOc1ccccc1NC(=O)c1ccc2c(Cl)c3c(nc2c1)CCC3,6.1%
Cc1ccc(NC(=O)CSc2nc3ccc(NC(=O)CCc4ccccc4)cc3s2)cc1,-0.5%
COc1ccc(NC(=O)c2ccc3[nH]c(C)cc(=O)c3c2)cc1,-12%
O=C(Nc1cccc(Br)c1)N1CCC(CN2CCCCCC2)CC1,-6.0%
Cc1cccc(NC(=O)Cn2cc(C(=O)C3CCCCC3)c3ccccc32)c1,-3.1%
Cc1ccccc1CNCCSc1nnnn1C,-0.1%
N#Cc1ccccc1NC(=O)CSc1ncn[nH]1,3.2%
COc1ccc(C2OC(CCc3ccccc3)Cc3[nH]c(=S)[nH]c(=O)c32)cc1 (centres undefined),5.0%
COc1ccc(-c2noc(-c3ccc(NCCc4ccccc4)c([N+](=O)[O-])c3)n2)cc1OC,-0.4%
CCc1ccc(N(CC)C(=O)c2ccc3c(=O)n4c(nc3c2)CCCCC4)cc1,-0.7%
CCOc1ccccc1CNC(=O)c1ccc(Cn2c(SCc3ccccc3)nc3cccnc32)cc1,16µM*
Cc1ccc(-c2csc(-c3c(N)c(C(=O)c4ccc5c(c4)OCO5)n4ccccc34)n2)cc1,0.4%
COc1ccc(NC(=O)CCc2c(C)nc3c(-c4ccccc4)c(C)nn3c2C)cc1Cl,25%
CCOc1cccc(C(=O)Nc2ccc(S(=O)(=O)N(Cc3ccccc3)c3ccccc3)cc2)c1,?
COc1ccc(C(=O)c2[nH]c(N)c(C(=O)NCCc3c[nH]c4ccccc34)c2-c2ccc(Cl)cc2)cc1,-1.0%
CCCN(CCC)CCCNC(=O)Cn1cc2c(n1)-c1c(oc(C(=O)N3CCCC3)c1C)CC2,-2.0%
CN(C)c1ccc(/C=C/c2nc(-c3ccccc3O)n(-c3ccccc3)n2)cc1,4.4%
Cc1cc(C)n2c(Nc3ccc4c(c3)OCCO4)c(C(C)C)nc2n1,0.8%
O=C1C(=O)N(C2CCN(C(=O)c3ccccc3F)CC2)CCN1Cc1ccc(F)cc1,0.1%
O=C(CSc1nnc2[nH]c(=O)cc(-c3ccccc3)n12)Nc1ccc(OC(F)(F)F)cc1,-27%
COc1ccc(NC(=O)C2CCCN(c3ncnc4c3nc3n4CCCCC3)C2)c(OC)c1 (centres undefined),1.5%
COc1ccc(NC(=O)Cn2cc(C(=O)C3CCCCC3)c3ccccc32)cc1,-2.7%
Cn1c(SCC(=O)Nc2nc3ccccc3s2)ncc(C(=O)Nc2ccccc2)c1=O,?
CCOC(=O)C1CCN(c2nc3c(S(=O)(=O)c4ccc(C)c(C)c4)nnn3c3ccc(Cl)cc23)CC1,3.9%

# Gathered by group: those above with a CF3 group (three)
SMILES,ClpP mod
O=C(Cn1c(Cn2c(-c3cnccn3)nc3ccccc32)nc2ccccc21)c1ccc(OC(F)(F)F)cc1,4.8%
Cn1c2ccccc2c2c(C(=O)N3CCN(c4cccc(C(F)(F)F)c4)CC3)cn(C3CCCCC3)c(=O)c21,?
O=C(CSc1nnc2[nH]c(=O)cc(-c3ccccc3)n12)Nc1ccc(OC(F)(F)F)cc1,-27%

# The list continues:
SMILES,ClpP mod
CCOc1ccc(NC(=O)Cn2cc(C(=O)c3ccc(OC)cc3)c(=O)c3cc4c(cc32)OCO4)cc1,-28%
CCc1nc(-c2ccc(C)c(S(=O)(=O)N3CCN(c4ccc(C(C)=O)cc4)CC3)c2)no1,?
COc1ccc(NC(=O)c2cc3c(-c4ccccc4F)nn(C)c3s2)c(OC)c1,?
Cc1c2cnn(CC(=O)NCCc3ccccc3)c(=O)c2c(C)n1Cc1ccccc1,-14%
Cc1cccc(C)c1-n1nnnc1C(c1ccnc2ccccc12)N(CCN(C)C)Cc1ccccc1 (centres undefined),-0.8%
COc1cccc(NC(=O)c2sc3nc(C)c(C(=O)Nc4ccc(C)cc4C)c(-c4ccco4)c3c2N)c1,-0.6%
Clc1ccc(CNc2cc(-c3ccccc3)nc3nncn23)cc1,-25%
Cc1c(/C=C/c2ccnc3ccccc23)ccc(N(C)C)c1C,-0.3%
COCCN(Cc1ccco1)C(=O)Cn1ncc2c([nH]c3ccccc32)c1=O,4.4%
CC(=O)N1c2ccc(S(=O)(=O)NCC3CCC(C(=O)Nc4ccc(F)cc4)CC3)cc2CC1C (centres undefined),-5.7%
CN(C)c1ccc(/C=C/C=C/c2ccnc3ccccc23)cc1,1.1%
CCCOC(=O)C(C)n1nnc2sc(-c3ccccc3)cc2c1=O (centres undefined),4.5%
O=C(NCc1ccccn1)[C@@H]1CCCN1C(=O)[C@@H]1CCCN1C(=O)c1c(F)cccc1F,0.0%
COc1cccc(CNC(=O)CSC2=Nc3ccccc3C3=NC(C(C)C)C(=O)N23)c1 (centres undefined),?
CCOc1ccc2nc(N3CCCC(C(=O)NCCc4ccc(Cl)cc4)C3)sc2c1 (centres undefined),0.8%
Cc1cc(C)cc(OCC(=O)N(Cc2ccc(Cl)cc2)CC2CCCO2)c1 (centres undefined),0.3%
COc1ccc(N2CCN(S(=O)(=O)CCNC(=O)Cc3ccc(-c4ccccc4)cc3)CC2)cc1,-2.8%
CCc1ccc(-n2nc(CO)c(C(=O)NCc3ccccn3)n2)cc1,14µM*
Cc1cccc(OCCOCCn2c(-c3ccc(Cl)cc3)nc3ccccc3c2=O)c1C,-21%
COCc1nc2ccccc2n1CCOc1cccc(C)c1,-0.1%
CCC(Nc1ccc(-c2nc(-c3ccco3)no2)cc1[N+](=O)[O-])c1ccccc1 (centres undefined),-2.7%
CCOC(=O)c1ccc(NC(=O)CN2C(=O)CC(c3ccc(C)c(C)c3)=Nc3ccccc32)cc1,-3.3%
CCN(C(=O)CSc1nc2ccccc2[nH]1)c1ccccc1,1.2%
COc1cc2ccccc2cc1C(=O)Nc1cccc(-c2nc3cc(C)ccc3o2)c1C,-5.2%
CCC(=O)N1CCc2cc(S(=O)(=O)NC(C(=O)NCCc3ccccc3)C(C)C)ccc21 (centres undefined),0.3%
Cc1ccc(S(=O)(=O)NCC2CCC(C(=O)N(C)Cc3ccccc3)CC2)cc1 (centres undefined),-0.9%
Cc1ccc(-c2nc(S(=O)(=O)c3ccc(C)cc3)c(N3CCCCC3)o2)cc1,-13%
CN(C(=O)CSc1cn(CC(=O)N2CCCCCC2)c2ccccc12)c1ccccc1,1.5%
COc1cc(OC)c(NC(=O)c2ccc3c(c2)N(Cc2ccc(C)cc2)CCS3)cc1Cl,?
CCOc1cccc(C2Oc3nc(SC)nnc3-c3ccccc3N2C(C)=O)c1OC (centres undefined),-0.4%
COC(=O)C[C@@H]1CC[C@@H](NC(C)=O)[C@@H](CO)O1,-0.4%
O=C(c1ccc(C(F)(F)F)cc1)N1CCC(c2noc(-c3ccc(S(=O)(=O)N4CCCC4)cc3)n2)CC1,0.4%
O=C(NCc1cccs1)C1CCN(C(=O)N2CCOc3ccccc32)CC1,-1.9%
Cc1cccc(N2CCN(C(=O)CCCn3ncn4c(cc5occc54)c3=O)CC2)c1C,-1.0%
Cn1c(=O)cc(SCC(=O)N2CCN(c3ccccc3F)CC2)c2ccc(Cl)cc21,-3.9%
CCOC(=O)c1c(C)c(-c2ccccc2)n(CC(=O)NCCc2cccc(C)c2)c1C,-3.5%
O=C(COc1ccccc1)NC1CC(=O)N(c2ccc3c(c2)OCCO3)C1 (centres undefined),-1.6%
Cc1c(Cl)cccc1NC(=O)Cn1c(=O)n(Cc2ccco2)c(=O)c2oc3ccccc3c21,-12%
CC(C)c1ccc(C2CC(=O)N3CN(C4CCCCC4)CSC3=C2C#N)cc1 (centres undefined),-1.5%
CCOC(=O)[C@]12CCCC=C1N(Cc1ccc(Cl)cc1Cl)C(=O)[C@H](CC(=O)N1CCOCC1)C2,0.5%
COc1ccc(NC(=O)c2cn(-c3ccccc3)nc2-c2ccc(C)cc2)cc1,-28%
Cc1ccc(NC(=O)CCC(=O)N2CCSc3ccccc32)cc1Cl,-1.4%
CCCCOc1ccc(C(=O)Nc2cccc(-c3nc4ccccc4o3)c2C)cc1,-6.3%
Cc1ccc(S(=O)(=O)N(CC(=O)Nc2cccnc2)c2cc(Cl)ccc2C)cc1,-0.8%
CCCNC(=O)C1CCC(Cn2c(=O)c3sccc3n(CC(=O)N3CCC(C)CC3)c2=O)CC1 (centres undefined),-4.1%
COc1ccc2c(C)c(CC(=O)NCc3ccc(C)cc3)c(=O)oc2c1OC,3.9%
O=C(c1ccccc1)n1nc(-c2ccco2)nc1NCc1ccccc1Cl,-6.2%
COc1cccc(C(=O)c2cn(CC(=O)Nc3cccc(Cl)c3C)c3nc(C)ccc3c2=O)c1,-0.3%
COc1ccc(CCNC(=O)c2ccc(Cn3c(=O)c4ccccc4n(Cc4ccc(C)cc4)c3=O)cc2)cc1OC,-1.5%
COc1ccc(C(=O)NCCn2cc(SCc3c(F)cccc3Cl)c3ccccc32)cc1,-0.8%
CCCNC(=O)CCC(=O)N1Cc2ccccc2Oc2ncccc21,-0.9%
Cc1ccccc1OC(=O)c1snnc1C,-1.0%
COC(=O)c1cc(NC(=O)Cn2ncc3c2-c2ccccc2OC3)cc(C(=O)OC)c1,0.6%
CCOC(=O)c1c(NC(=O)Cc2coc3cc(C)ccc23)sc2c1CCCC2,?
CCOc1ccc(C(=O)NC2CC(=O)N(c3ccc(C)cc3)C2)cc1OCC (centres undefined),-3.0%
COc1cccc2c1Oc1ncccc1N(C(=O)CCC(=O)NCc1ccc(N(C)C)cc1)C2,-2.4%
Cc1ccc2c(CC(=O)NCc3ccccc3)coc2c1C,-0.2%
CSc1ncc(C(=O)NCc2ccccc2Cl)c(C(F)(F)F)n1,-1.2%
Cc1ccc(NC(=O)Cn2cnc3c(oc4ccccc43)c2=O)cc1Cl,-1.5%
CCOC(=O)c1c(C)oc2ccc(N(C(=O)c3ccncc3)S(=O)(=O)c3ccc(CC)cc3)cc12,0.6%
# (list continues)
SMILES,ClpP mod
Cc1oc2ccc(O)c(CN3CCN(C)CC3)c2c1C(=O)Nc1cccc(C(F)(F)F)c1,-1.4%
COc1ccc(-c2nc(CSCC(=O)NCCC(C)C)c(C)o2)cc1OC,28µM*
CCCCNC(=O)CSc1c2c(nc3ccc(Cl)cc13)CCCC2,4.4%
Brc1ccc[n+](CCc2ccccc2)c1,-1.0%
COC(=O)c1ccc(C2NC(c3ccc4c(c3)OCO4)=CC(c3ccccc3O)N2)cc1 (centres undefined),-5.4%
CCc1nn2c(-c3ccco3)ccnc2c1-c1ccccc1,1.3%
Cc1cccc(CN2C(=O)c3ccccc3S(=O)(=O)c3ccc(C(=O)NCCC4=CCCCC4)cc32)c1,-2.7%
O=C(Nc1cccc(Cl)c1Cl)c1cc(S(=O)(=O)N2CCCc3ccccc32)ccc1F,-16%
CC(=O)c1ccc(S(=O)(=O)N2CCN(c3nc(-c4ccccc4)nc4ccccc34)CC2)cc1,-12%
Cc1ccc(CNC(=O)C(C)n2nc(C)c3sc4ccccc4c3c2=O)cc1 (centres undefined),-13%
Cc1ccn2c(Nc3ccccc3C)c(-c3ccc(N4CCOCC4)cc3)nc2c1,3.6%
COc1cccc2c1cc1c(=O)n(CC(=O)NCc3ccc(N(C)C)cc3)nc(C)n12,-21%
NC(=O)CSc1oc(-c2cccs2)nc1S(=O)(=O)c1ccc(Br)cc1,-0.4%
Cc1cccc(-c2nc3ccccc3n2Cc2ccccc2)c1,-19%
O=C(CN1C(=O)COc2ccc(S(=O)(=O)N3CCOCC3)cc21)N1CCN(c2cccc(C(F)(F)F)c2)CC1,-3.2%
CC1CCC(N2CC(=O)N(C3CCCCC3)C(c3ccc(Cl)cc3)C2=O)CC1 (centres undefined),0.8%
COc1ccccc1NC(=O)CCN1CCC(C(N)=O)CC1,-0.1%
